From PubChem BioAssay
ClpP mod – qHTS Assay for Activators of ClpP. Potency, µM (titrated, usually from 57.5 µM), for inactives: at the highest dose activity change, negative = active. hit rate 1.9% among 340,000. purified B. subtilis ClpP, FRET peptide cleavage, 20 min; active = well fitted falling curve with a large enough effect; inconclusive = small, poorly fitted or top-dose-only effect; inactive = no such curve, though single readings can be large or run the other way; further: potency means the concentration at half of the fitted maximal effect; the source files actives as falling curves though it sought activators and does not explain the sign; nearly all actives have a fitted effect of over 65% in size; many hits overshoot -100%
Target sequence (P80244 whole entry, looked up): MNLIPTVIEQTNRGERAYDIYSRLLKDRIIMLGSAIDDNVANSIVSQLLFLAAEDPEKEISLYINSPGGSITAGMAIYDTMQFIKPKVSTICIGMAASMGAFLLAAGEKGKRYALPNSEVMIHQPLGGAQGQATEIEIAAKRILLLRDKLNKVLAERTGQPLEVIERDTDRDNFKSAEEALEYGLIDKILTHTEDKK
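FRET quenching reversal measured ClpP activation: 10 microg/mL B. subtilis ClpP at pH 8 with the FRET-FV decapeptide, read at 430 nm after 320 nm excitation. The 20-min minus 0-min signal was scaled between DMSO/no-enzyme wells and ADEP (5.8 microM final).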
D2 potentiator – human D2 receptor positive allosteric modulation; hit rate 0.23% among 360,000; potentiation, % (concentration not given with the values); DiscoveRx D2 beta-arrestin cells, luminescence, 90 min; 100% = 57 uM dopamine signal; P14416; active = potentiation of 50% or more; inconclusive = 30% to 50%; inactive = 30% or less;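 further: compound concentration not given in the record; tested on top of an EC20 dose of dopamine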
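PathHunter D2 cells, attached overnight at 37 deg C, received compound in DMSO plus dopamine at EC20 (50 nM final) for 90 min at 37 deg C. Beta-arrestin recruitment was read as luminescence after 1 h with detection reagent at ambient temperature.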
TRPV1 potentiator – enhances activation of the human vanilloid receptor TRPV1. TRPV1-expressing cells, Fluo-8 calcium influx, capsaicin EC20 potentiation; host cell line not named in the record; control for the full effect not named in the record. hit rate 0.02% among 320,000. Q8NER1. AID 540277. potentiation, % at 8.33 µM; active means potentiation above 80%; inconclusive means 30% to 80%; inactive means below 30%; further: 0% is about no effect
Target sequence (Q8NER1 whole entry, looked up): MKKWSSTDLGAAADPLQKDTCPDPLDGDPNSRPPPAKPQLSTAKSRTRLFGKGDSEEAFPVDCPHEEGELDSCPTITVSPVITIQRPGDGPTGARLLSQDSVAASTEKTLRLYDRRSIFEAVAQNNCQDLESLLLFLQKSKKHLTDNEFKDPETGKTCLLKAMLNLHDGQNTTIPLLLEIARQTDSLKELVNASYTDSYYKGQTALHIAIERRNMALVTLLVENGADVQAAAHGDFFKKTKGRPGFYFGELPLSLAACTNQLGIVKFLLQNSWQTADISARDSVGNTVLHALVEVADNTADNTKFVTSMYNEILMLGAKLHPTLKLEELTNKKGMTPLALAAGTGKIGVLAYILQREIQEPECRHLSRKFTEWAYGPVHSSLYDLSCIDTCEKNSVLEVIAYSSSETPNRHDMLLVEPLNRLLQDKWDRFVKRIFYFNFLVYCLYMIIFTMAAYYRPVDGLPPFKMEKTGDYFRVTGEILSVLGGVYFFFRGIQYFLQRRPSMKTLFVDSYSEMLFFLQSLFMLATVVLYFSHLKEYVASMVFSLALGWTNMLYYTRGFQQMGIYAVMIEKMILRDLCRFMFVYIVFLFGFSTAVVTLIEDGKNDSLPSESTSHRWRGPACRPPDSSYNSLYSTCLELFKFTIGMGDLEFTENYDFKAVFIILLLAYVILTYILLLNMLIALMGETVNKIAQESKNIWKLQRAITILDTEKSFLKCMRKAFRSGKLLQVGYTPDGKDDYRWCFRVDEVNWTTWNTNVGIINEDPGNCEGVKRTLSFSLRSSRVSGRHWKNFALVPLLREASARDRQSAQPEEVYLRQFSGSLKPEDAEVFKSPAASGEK
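TRPV1-expressing cells were cultured overnight at 35.5C and loaded with Fluo-8 calcium dye for 40 to 90 min at room temperature. After a 10 s baseline, compound was added and calcium influx was read kinetically for 3 min (ex 480/em 520 nm).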
gsp ag – agonists of gsp mutant (McCune-Albright syndrome); gsp mutant cells, cAMP HTRF, 30 min; control for the full effect not named in the record; Potency, µM (doses to about 76.9 µM), inactives show top-dose activation (cAMP increase), usual class: activators; hit rate 0.13% among 340,000; AID 624287; active = well fitted activation curve with a large enough effect; inconclusive = small, poorly fitted or top-dose-only effect, or another doubt; inactive = no such curve, though single readings can be large or run the other way; cell line not stated here;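 further: phosphodiesterase inhibitor Ro 20-1724 added with compounds to block cAMP breakdown; potency means the concentration at half of the fitted maximal effect; nearly all actives have a fitted effect of over 60% in size; about a fifth of the inactives were tested at one dose only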
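Cells stably selected in G418 were plated at 2000/well, grown 16-24 hr, then given compounds in DMSO with the PDE inhibitor […] (300 uM solution added) for 30 min at 37C; cAMP was read by HTRF.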
gsp antagonist – gsp mutant antagonism | gsp-mutant cells, cAMP HTRF, 30 min; control for the full effect not named in the record | Potency, µM (highest dose often 76.9 µM), inactives show top-dose activity change, negative = inhibition, actives largely listed as inhibitors | hit rate 0.4% among 340,000 | AID 624288; active = falling curve of any shape with a large fitted effect; inconclusive = falling curve, mostly with a smaller effect; inactive = flat or rising curve; cell line not stated here;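 further: intracellular cAMP measured with PDE inhibitor Ro 20-1724 present during compound exposure; potency means the concentration at half of the fitted maximal effect; on the % scale 0 is the no-effect control and ±100 the full control effect; nearly all actives have a fitted effect of over 65% in size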
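HTRF cAMP measurement after 30 min RT detection following 30 min, 37C compound treatment alongside […] (added as 300 uM solution) in G418-selected cells seeded at 2000/well and grown 16–24 h.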
Menin-MLL FL inh – inhibitors of human menin-MLL interaction, wild-type MLL peptide; Fluorescence polarization, fluorescein-MLL peptide displacement from menin; FP activity change, % at 61.4 µM; 290,000 tested, under 10 active; inconclusive = falling polarisation curve, or a change in total fluorescence; inactive = total fluorescence flat and polarisation flat or rising; no compound was filed as active; the % refers to the polarisation; negative = inhibition;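 further: % of control where 0% means no effect; inhibitors lower the polarisation; unlabelled MLL peptide was the positive control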
Sfp inh – blocks B. subtilis Sfp PPTase activity. Q9F4F7. Potency, µM, for the others: max response, negative = inhibition, actives largely listed as inhibitors. hit rate 3.5% among 310,000. Biochemical Sfp PPTase activity, qHTS; active means well fitted inhibition curve with a large enough effect; inconclusive means small, poorly fitted or top-dose-only effect, or another doubt; inactive means no such curve, though single readings can be large or run the other way;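 further: the enzyme is Sfp with the accession as filed and its product quenches rhodamine fluorescence; potency means the concentration at half of the fitted maximal effect; 0% = enzyme reaction without inhibitor and -100% = no enzyme wells; top concentration of the series not given in the record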
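Sfp 15 nM + cpd, 15 min RT; start w/ rhodamine-CoA 5 uM, BHQ-2-YbbR 12.5 uM (final); 50 mM Hepes pH 7.6, 10 mM MgCl2, 0.01% NP-40, 0.01% BSA; read 525/598 nm at 0 and 30 min.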
* marks the source's active call; other numbers are inactive results; ? = inconclusive; nt = no result given; [ ] = remark or other dose.

SMILES	ClpP mod	D2 potentiator	TRPV1 potentiator	gsp ag	gsp antagonist	Menin-MLL FL inh	Sfp inh
CC1CCCCN1C(=O)Cn1cc(C=O)c2ccccc21 (stereo not given)	1.2%	0.8	-6.8	-26.4%	-9.1%	2.6	37.9%
Cc1ccc(S(=O)(=O)N2CCOC23CCN(C(=O)c2ccccc2Br)CC3)cc1	0.3%	-4.0	8.3	-8.3%	-10.1%	nt	5.5%
O=C(CN1CCSC1=O)N1CCN(S(=O)(=O)c2ccccc2)CC1	-2.0%	-4.2	9.8	4.2%	8.3%	nt	nt
O=C(O)c1sccc1SCc1ccc(Cl)cc1Cl	-4.0%	-10.7	nt	10.7%[15.4 µM]	-7.3%	5.0	9.2%
Cc1ccc2c(c1)nnn2C1CCN(S(=O)(=O)c2ccc(C(=O)N(C)C)cc2)CC1	-1.8%	-13.1	-4.8	-56.5%[inhibitor]	-12.1%	2.2	5.7%
COc1ccc(OC)c(NC(=O)Nc2ccc3c(c2)OCO3)c1	-2.4%	-22.8	3.6	17.9%	-8.9%	2.7	-0.5%
Cc1ccc(C)c(NC(=O)CN(C)C(=O)c2ccc(-n3cncn3)c([N+](=O)[O-])c2)c1	-0.8%	2.5	-1.2	-22.0%	-6.9%	nt	nt
COCc1cc(=O)n2c(-c3ccc(C)cc3)n[nH]c2n1	3.9%	-2.8	14.2	?	3.8%	7.8	-17.4%
CCn1c(N2CCC(Cc3ccccc3)CC2)nc2c1c(=O)[nH]c(=O)n2C	1.1%	29.9	4.0	1.6%	2.9%	-0.2	-9.0%
CC(C)(C)NC(=O)CN(Cc1cccs1)C(=O)CNS(=O)(=O)c1ccc(F)cc1	-2.1%	-6.9	9.3	1.4%	4.9%	-3.6	17.9%
COc1cc(C(=O)NCCOc2ccccc2)c(Br)c(OC)c1OC	0.1%	-13.5	2.9	21.4%	-10.8%	4.9	20.3%
Cc1ccc(CNC(=O)[C@@H]2CCC(=O)N2Cc2ccco2)cc1	-0.8%	-11.3	-2.4	0.0%	12.2%	3.1	-2.6%
CCOC(=O)CSc1nc2cc(C(F)(F)F)cnc2n1C	-1.3%	-2.0	nt	?	-0.8%	3.3	1.9%
CN(Cc1cc(-c2ccccc2)on1)C(=O)c1cc(COc2c(F)cccc2F)on1	-2.0%	-12.5	3.7	6.7%	-12.0%	-3.2	-2.7%
COc1ccc(C(=O)NCC(c2ccco2)N2CCOCC2)cc1 (stereo not given)	-0.9%	-12.7	nt	21.3%	nt	nt	nt
Cc1nc2ccc(Cl)cc2nc(C)/c1=N\O	-7.0%	83.1*	-9.8	2.0%	-0.6%	?	1.3%
O=C(CCc1c[nH]c2ccccc12)NCCOc1ccccc1	nt	-1.8	-16.0	8.5%	7.3%	5.0	2.6%
CC(=O)CCC(=O)c1ccc2ccccc2c1	?	-9.6	-11.0	-5.2%	2.0%	-0.8	7.5%
CC1CCN(C(=O)c2cc(-c3ccco3)on2)CC1	nt	-2.5	-6.3	26.6%[15.4 µM]	1.8%	3.6	1.1%
Cc1ccc(OCC(=O)NCCCNC(=O)c2ccccn2)cc1	nt	-5.1	0.7	19.9%	9.2%	8.9	11.9%
O=C(c1ccc(Cl)s1)N1CCN(c2ncccn2)CC1	nt	4.0	-20.9	-5.2%[15.4 µM]	-19.0%	2.7	20.4%
O=C(Nc1sc2c(c1C(=O)c1ccc(Cl)cc1)CCCC2)c1cccnc1	1.0%	-8.5	-34.1	-23.0%	4.4%	2.6	31.6µM*
CC(C)(C)OC(=O)NCCCCCc1cn(CC(=O)NCCCCCCCCCCC(=O)N2CCN(C(=O)OC(C)(C)C)CC2)nn1	-1.1%	-10.9	-21.5	-33.5%[inhibitor]	-6.2%	nt	nt
CCOC(=O)c1c(C)[nH]c(O)c1C=Nc1ccc(Cl)cc1	3.8%	-22.7	nt	0.2%	3.3%	?	?
CCOC(=O)C1=CC[C@H]2c3c(c4ccccc4n3C)C(=O)C1N2Cc1ccccc1	-0.9%	-3.8	nt	5.1%	-22.8%	nt	nt
Additional compounds follow.
SMILES	ClpP mod	D2 potentiator	TRPV1 potentiator	gsp ag	gsp antagonist	Menin-MLL FL inh	Sfp inh
C=CCN=C(C)C1=C(O)CCC1=O	?	25.7	?	0.0%	3.8%	5.1	3.1%
CCN1C(=O)CC(C(C)C)N(C2CCCC2)c2nc(Nc3ccc(C(=O)NC4CCN(C)CC4)cc3OC)ncc21 (stereo not given)	-20.1%	-12.1	nt	nt	-1.4%	nt	nt
COc1ccc(OCCOC(=O)c2ccc(F)c(S(=O)(=O)N3CCOCC3)c2)cc1	-1.6%	-1.2	-9.3	-7.8%	-20.8%	nt	nt
CCOP(=O)(c1ccccc1)c1nc(-c2ccccc2C)oc1NCc1ccccc1 (stereo not given)	?	8.1	-11.4	0.9%	4.2%	-2.2	-17.2%
CN(CCOc1ccc(Cl)cc1)C(=O)CN1C(=O)NC2(CCCC2)C1=O	-1.5%	-9.3	-8.6	?	-3.6%	nt	nt
CC1CCN(C(=O)c2ccc(NS(=O)(=O)c3cccc4cccnc34)cc2)CC1	0.9%	4.1	21.0	-0.9%	2.6%	-0.9	-10.5%
CCOc1ccccc1OCCCNCc1ccco1	1.6%	-15.0	7.8	-9.5%[15.4 µM]	15.9%	6.5	-0.9%
O=C(c1ccc(C(F)(F)F)cc1)N1CCCCC1	1.3%	-7.6	3.3	?	0.2%	1.0	11.2%
COc1ccc(N2C(=O)CCC(C(=O)N(C)CCc3ccccn3)C2c2ccc(OC)c(OC)c2)cc1 (stereo not given)	nt	-1.5	-0.1	26.7%	6.2%	19.3	-5.4%
N#Cc1ccc(C2N=C(c3ccccc3)NO2)cc1 (stereo not given)	nt	-2.6	-38.2	-0.1%[15.4 µM]	-6.4%	-6.5	6.6%
CCCCn1c(SCc2nc(N)nc(N3CCCCC3)n2)nc2c1c(=O)n(C)c(=O)n2C	2.1%	-12.6	2.5	16.1%	4.4%	6.7	8.3%
COc1ccc(C(=O)N/C(=C/c2cccnc2)C(=O)NCc2ccco2)cc1OC	-1.0%	-2.7	6.3	-15.3%[15.4 µM]	8.3%	2.3	-2.1%
CCOc1cc(S(=O)(=O)NCc2ccncc2)ccc1Cl	nt	0.8	-10.2	-60.0%[inhibitor]	-2.2%	4.2	5.7%
c1ccc(OCc2noc(CN3CCC(C4CCCCC4)C3)n2)cc1 (stereo not given)	-1.0%	-7.3	-13.3	?	-4.2%	5.3	-0.7%
Cc1ccc(-c2nc(-c3ccncc3)no2)cc1C	nt	0.5	23.8	-47.7%[inhibitor]	5.5%	0.7	11.2%
CCOC(=O)N1CCC(n2c(SCC(=O)NCc3ccco3)nc3ccsc3c2=O)CC1	-1.2%	-5.3	6.0	?	-23.8%	7.7	-4.0%
O=C(COc1ccc2ccccc2c1)NNC(=O)c1ccccc1	nt	-6.3	17.7	3.0%[15.4 µM]	4.8%	3.8	13.2%
Cc1occc(=O)c1OC(=O)Nc1ccc(Cl)c(Cl)c1	-1.7%	-9.2	-3.1	22.8%	-22.9%	4.5	-15.2%
CCC(C)[C@H](NC(=O)N1CC(=O)Nc2ccccc21)C(=O)N[C@@H](Cc1c[nH]c2ccccc12)C(=O)O (stereo not given in full)	-3.5%	-38.0	-0.6	nt	0.1%	4.5	11.6%
COc1cccc(-c2ccc(C#N)c(SCC(=O)NCCc3ccccc3)n2)c1	-24.7%	-10.4	7.8	16.3%	2.9%	3.7	10.3%
COC1C=COC2(C)Oc3c(C)c(O)c4c(O)c(c(CN5CCN(C)CC5)c(O)c4c3C2=O)NC(=O)C(C)=CC=CC(C)C(O)C(C)C(O)C(C)C(OC(C)=O)C1C (stereo not given)	-6.8%	0.8	nt	-10.0%	-6.7%	nt	nt
COCCNC(=O)COC(=O)CSCc1nc2ccccc2s1	-2.4%	-12.7	9.9	-16.6%	-11.6%	3.9	14.4%
CC(=O)c1ccc(N2CCN(C(=O)c3cc(S(=O)(=O)N4CCOCC4)ccc3C)CC2)cc1	0.9%	-29.6	nt	8.0%[15.4 µM]	-13.2%	nt	nt
O=C(c1cc(-c2ccncc2)nc2ccccc12)N1CCN(c2ccccn2)CC1	-3.2%	-9.2	3.3	-31.3%[inhibitor]	-2.3%	1.6	-0.2%
CCCCN1C(=O)NC(NC(C)=O)(C(F)(F)F)C1=O (stereo not given)	1.7%	0.7	-0.1	3.9%	3.1%	0.2	13.8%
Next part
SMILES	ClpP mod	D2 potentiator	TRPV1 potentiator	gsp ag	gsp antagonist	Menin-MLL FL inh	Sfp inh
CCN(CC)CCCOc1nc(C)nc2c1oc1ccccc12	-5.6%	-19.5	7.9	-8.2%	15.6%	-0.9	10.4%
CN(C(=O)c1ccc(Br)o1)C1CCCCC1	0.9%	-8.7	-11.4	10.6%	1.5%	-2.0	26.7%
O=C1CCC2S/C(=C/Nc3ccc(C(F)(F)F)cc3)C(=O)N12 (stereo not given)	nt	-10.9	-1.2	-21.0%[15.4 µM]	-7.2%	2.9	22.4µM*
Nc1ccc2nc(CCCCc3nc4ccccc4[nH]3)[nH]c2c1	-4.1%	-5.2	20.5	-2.4%	-1.3%	0.0	-6.2%
CC(=Nc1ccccc1)C1=C(O)C(Cc2ccc(O)cc2)NC1=O (stereo not given)	2.1%	-8.3	nt	2.5%	3.0%	nt	nt
CN(CC(=O)Nc1sccc1C#N)S(=O)(=O)c1ccc(F)cc1	nt	2.3	2.8	10.9%[15.4 µM]	3.1%	nt	nt
CNS(=O)(=O)c1cc(OC)ccc1OC	-0.5%	-10.9	1.6	-3.5%	14.1%	1.5	14.8%
CCOc1cc(/C=C2\N=C(SC)SC2=O)cc([N+](=O)[O-])c1OC(C)=O	1.5%	-33.9	9.7	0.0%	-15.7%	5.9	?
O=C(N/N=C\c1ccc(F)cc1)c1ccc(Cn2cc(Br)c([N+](=O)[O-])n2)o1	1.2%	-12.3	-15.3	-21.9%	?	1.0	-18.7%
Cc1ccc(C2=NN(CCC(=O)NCCCN3CCOCC3)C(=O)CC2)cc1	-2.6%	-4.1	-0.2	25.3%	9.6%	0.1	27.1%
CN(C)CCCN(C(=O)C1COc2ccccc2O1)c1nc2cc3c(cc2s1)OCO3 (stereo not given)	-15.5%	-1.9	25.4	3.2%	-6.0%	1.9	-9.7%
